# LANA-H2A inh: blockers of LANA interaction with H2A/H2B – biochemical, FP readout, HTS, primary screen. Protein LANA1 (Human herpesvirus 8 type P (isolate GK18)), Q9QR71. cell-free LANA-H2A/H2B peptide, fluorescence polarization. inhibition, % (test concentration not listed). 0.6% of 320,000 active. AID 2629, 2010; in the data active = inhibition mostly above about 10%, no sharp cut-off; inactive = mostly below about 6.7%;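 note: stock transfer was 7.5 nL into about 10 µL; 0% = median of vehicle wells and 100% = median of positive control wells; one replicate is shown; the record names a cut of 25% in any replicate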
# Beta cell apopt: inhibitors of cytokine-induced beta cell apoptosis, primary screen, luminescence. INS-1E cytokine-induced death, ATP luminescence, 48 h; percent of positive-control rescue, neutral wells zero. protection from apoptosis, % (no concentration beside the values). 0.8% of 300,000 active;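 active = all replicates at 75% or more, or half of them and the mean; inconclusive = half reach 75% but not the mean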;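 note: 0% = cytokine-treated negative control wells and 100% = positive control rescue; higher means more ATP so stronger rescue from cytokine killing; wells of about 40 µL received 100 nL stock; the first replicate is given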
# B2AR ag: beta2AR agonists driving receptor internalization, primary screen, cell-based, FAP fluorogen, flow cytometry. Beta-2 adrenergic receptor (Homo sapiens), P07550. Am2.2-beta2AR cells; reference of the scale not given here. response, % (concentration not given with the values). 0.43% of 340,000 active. AID 504454, 2011;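 active = response above a set limit, near 3 SD of response in nonfluorescent compounds, cut at about 42% in these data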;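 note: stock transfer was 100 nL into about 11 µL; a reference agonist was the positive control; negative values mostly stem from fluorescent compounds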
# Target sequence (P07550 whole entry, looked up): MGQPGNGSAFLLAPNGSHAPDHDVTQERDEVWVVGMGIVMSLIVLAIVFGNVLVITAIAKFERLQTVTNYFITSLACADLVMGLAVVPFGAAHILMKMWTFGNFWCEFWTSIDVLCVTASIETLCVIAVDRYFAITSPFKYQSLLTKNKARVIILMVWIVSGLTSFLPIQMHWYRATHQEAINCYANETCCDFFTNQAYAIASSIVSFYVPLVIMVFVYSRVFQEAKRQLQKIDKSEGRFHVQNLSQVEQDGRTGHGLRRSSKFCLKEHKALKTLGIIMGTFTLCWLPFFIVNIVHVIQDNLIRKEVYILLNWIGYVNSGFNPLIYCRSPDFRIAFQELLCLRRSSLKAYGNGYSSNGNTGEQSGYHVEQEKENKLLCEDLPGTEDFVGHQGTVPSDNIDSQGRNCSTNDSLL
# Bfl-1 A1 inh: caspase 3/7 activation in MEF A1-2A-BIM cells, primary screen, A1 inhibitor project, cell-based, luminescence, HTS; 0.066% of 330,000 active; caspase activation, % (concentration not given with the values); Caspase-Glo 3/7 luminescence, 3 h; percent of clofoctol response, vehicle zero;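 active = over half of replicate activation scores above 10%, or exactly half above 10 with the replicate mean above 10; inconclusive = replicate mean below 10 yet half the replicates above 10; inactive = over half of replicates below 10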;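 note: wells of about 30 µL received 50 nL stock; many hits fall short of the cut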
# Calb FLC: C. albicans growth inhibition with fluconazole, primary screen, CaCi-2 strain, Alamar Blue fluorescence | C. albicans CaCi-2 (fluconazole-resistant clinical isolate) + fluconazole, 48 h | growth inhibition, % (test concentration not listed) | 0.57% of 300,000 active | AID 1979, 2009;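 active = most replicates above 75%; inconclusive = exactly half above 75%; inactive = most below 75%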;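 note: all wells also contain fluconazole at 8 µg/ml as a sub-toxic cotreatment; 0% = median of DMSO wells and 100% = median of geldanamycin control wells; wells of about 8 µL received 7.5 nL stock; the first replicate is given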
# T cruzi inh: inhibitors of intracellular T. cruzi growth, primary screen, luminescence, NIH3T3 host cells; T. cruzi beta-gal in NIH3T3, 90 h; AID 1885, 2009; inhibition, % (test concentration not listed); 1.4% of 300,000 active;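 active = mean inhibition across valid replicates above about 55%, limit read from the data; inconclusive = mean below that limit but half or more replicates reach it; inactive = mean below it, under half of replicates reach it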;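 note: signal also drops with host cell toxicity which is not excluded here; 0% = plate median of DMSO wells and 100% = zero luminescence signal; higher percent means less beta-gal luminescence so fewer parasites; stock transfer was 50 nL into about 50 µL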
# ALR H2O2 inh: inhibitors of human ALR sulfhydryl oxidase, primary screen, biochemical, H2O2 detection, HRP-luminol luminescence, single point | purified ALR, DTT oxidation | inhibition, % (test concentration not listed) | 3.8% of 290,000 active;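 active = mean and each replicate at 75% or more; inconclusive = only one of the two met; inactive = neither met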;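 note: stock transfer was 7.5 nL into about 7.5 µL; 0% = neutral wells and 100% = wells with inactivated enzyme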
# Target sequence (P55789 whole entry, looked up): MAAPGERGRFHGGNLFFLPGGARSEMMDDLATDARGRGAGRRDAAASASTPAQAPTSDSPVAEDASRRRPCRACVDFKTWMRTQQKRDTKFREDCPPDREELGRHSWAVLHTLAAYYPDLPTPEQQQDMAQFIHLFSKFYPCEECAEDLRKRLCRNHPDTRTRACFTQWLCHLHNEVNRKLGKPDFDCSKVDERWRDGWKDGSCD
# rRNA inh HTS: reduced GFP signal of wild-type E. coli, primary screen, bacterial rRNA inhibitor project, GFP/RFP fluorescence, OD600, single point. E. coli WT GFP vs humanized-ribosome RFP mutants, 24 h; active compounds read low; DMSO median 0, no signal -100. GFP signal change (wild-type ribosome), % (test concentration not listed). 1.6% of 350,000 active. AID 720706, 2013;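 active = significant combined selectivity score with lowered wild-type GFP, culture density cut under 30%, mutant RFP and density less affected; inactive = any of these conditions unmet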; note: one replicate is shown; some compounds called inactive have numbers as strong as hits
# rRNA inh HTS OD600: further read-out of rRNA inh HTS, marked with its call; OD600 change, %; measured here: OD600 growth;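 optical density of the mix in the first replicate; 0 = DMSO median and -100 = no signal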
# rRNA inh HTS RFP: second read-out of rRNA inh HTS, no call of its own (marks repeat the call); RFP signal change, %; measured here: RFP humanized mutant strains;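 first replicate; 0 = DMSO median and -100 = no signal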
# Numbers without * were called inactive; ? = inconclusive; . = not tested or not shown.
SMILES,LANA-H2A inh,Beta cell apopt,B2AR ag,Bfl-1 A1 inh,Calb FLC,T cruzi inh,ALR H2O2 inh,rRNA inh HTS,rRNA inh HTS OD600,rRNA inh HTS RFP
COc1ccc(NC(=O)NC2CCCCCCC2)cc1,-1.8,3.2,2.8,-1.9,1.4,-2.5,-0.7,4.6,6.0,-0.3
COc1ccccc1S(=O)(=O)Nc1ccc(-c2nnc3n2CCCCC3)cc1,2.7,-8.4,5.2,-1.3,-13.8,9.8,-14.9,.,.,.
Cc1ccc(-c2nc(SC(C)C(=O)c3c(N)n(C)c(=O)n(C)c3=O)n[nH]2)cc1 (stereo not drawn),-2.9,2.3,7.1,0.0,6.3,-7.4,50.0,0.1,-0.4,-2.2
Cn1ccnc1C1CCCCN1Cc1nc(Cc2cccc(C(F)(F)F)c2)no1 (stereo not drawn),6.9,-1.2,3.9,-0.4,-8.1,-3.9,8.0,-7.0,-10.8,0.3
COc1ccc(Cl)cc1NC(=O)CC(C)c1ccccc1 (stereo not drawn),1.3,0.1,-0.3,1.0,-3.6,3.0,-10.0,.,.,.
CC(=O)Nc1ccc(CN2CCCC(CO)(Cc3ccccc3C)C2)cc1 (stereo not drawn),-1.6,4.8,-1.1,-0.1,4.2,3.2,-9.9,-0.8,-11.1,1.3
COCCN1Cc2cccc(C(=O)NCCCN3CCCC3=O)c2C1=O,-4.1,-1.4,9.3,-0.1,-3.6,-7.0,-2.1,10.4,10.4,-1.5
COc1ccc(N2C(=O)CCC(C(=O)N3CCCCC3)C2c2ccc(OC)c(OC)c2)cc1 (stereo not drawn),0.1,4.2,4.3,0.9,1.2,-11.1,1.0,.,.,.
CCO[C@@H]1OC(C(=O)NC2CC2)=C[C@H](C2CC2)[C@H]1CCCO,-0.8,-3.7,0.2,-0.3,-1.9,-18.8,2.1,1.7,-2.6,-4.1
CCN1CCN(S(=O)(=O)Cc2ccccc2Cl)CC1,-0.6,.,4.8,0.7,-0.4,-0.5,-1.0,1.3,16.7,1.5
COc1ccc(CC(=O)OCC(=O)NCc2ccc3c(c2)OCO3)cc1OC,0.4,-8.0,-0.5,0.3,.,.,0.0,-2.4,-7.3,-0.1
COc1cccc(CNC(=O)CN2C(=O)COc3ccc(S(=O)(=O)N4CCOCC4)cc32)c1,-0.4,-1.4,0.4,2.7,5.8,-1.3,-0.3,8.8,15.4,0.0
O=C(NNS(=O)(=O)c1ccccc1[N+](=O)[O-])c1ccc(O)cc1,-0.8,2.0,2.9,-0.5,-14.0,-12.3,-11.1,.,.,.
COc1ccc2cc(C(=O)CS(=O)(=O)c3ccccc3)c(=O)oc2c1,-4.8,1.3,12.8,0.0,0.1,-3.9,-1.5,-4.0,7.0,0.3
CCCCN1C(=N)N([C@@H](C)CN2CCC[C@H]2CN2C(N)=NC[C@@H]2Cc2ccccc2)C[C@H]1[C@H](C)CC,0.5,-1.7,-4.8,-0.2,.,.,3.0,-17.6,-15.9,13.1
Cc1ccccc1Nc1nc(N)nc(CN2CCN(C(=O)c3ccccc3)CC2)n1,8.0,-1.0,2.2,-0.3,1.5,1.8,.,8.0,10.9,2.2
CC(/C=N/NC(=O)CNc1n[nH]c(=O)[nH]c1=O)c1ccccc1 (stereo not drawn),6.5,-4.5,5.1,-0.4,-1.4,-4.5,-7.2,9.6,6.8,-4.1
COCCn1c(SCC(=O)Nc2ccc(C(N)=O)cc2)nc2c([nH]c3ccccc32)c1=O,4.6,-3.3,-5.1,-0.2,.,-14.5,99.3*,15.6,20.0,2.2
COC(=O)c1ccc(/C=C/c2c(-c3ccsc3)sc3ccccc23)cc1,0.5,-2.7,-8.1,0.1,-8.2,-6.6,-13.0,-2.9,-1.6,-5.9
CCOC(=O)C1CCCCN1Cc1cccc(OC)c1OC (stereo not drawn),1.0,.,3.4,0.4,6.1,-6.2,-0.5,17.4,10.3,1.0

# 2 of these compounds in a different format.
# Screens in order – LANA-H2A inh | Beta cell apopt | B2AR ag | Bfl-1 A1 inh | Calb FLC | T cruzi inh | ALR H2O2 inh | rRNA inh HTS | rRNA inh HTS OD600 | rRNA inh HTS RFP
> COc1ccc(NC(=O)NC2CCCCCCC2)cc1
 : -1.8 | 3.2 | 2.8 | -1.9 | 1.4 | -2.5 | -0.7 | 4.6 | 6.0 | -0.3
> COc1ccccc1S(=O)(=O)Nc1ccc(-c2nnc3n2CCCCC3)cc1
 : 2.7 | -8.4 | 5.2 | -1.3 | -13.8 | 9.8 | -14.9 | . | . | .

# At a glance, part of the list above.
SMILES,LANA-H2A inh,Beta cell apopt,B2AR ag,Bfl-1 A1 inh,Calb FLC,T cruzi inh,ALR H2O2 inh,rRNA inh HTS,rRNA inh HTS OD600,rRNA inh HTS RFP
COC(=O)c1ccc(/C=C/c2c(-c3ccsc3)sc3ccccc23)cc1,0.5,-2.7,-8.1,0.1,-8.2,-6.6,-13.0,-2.9,-1.6,-5.9
CCOC(=O)C1CCCCN1Cc1cccc(OC)c1OC (stereo not drawn),1.0,.,3.4,0.4,6.1,-6.2,-0.5,17.4,10.3,1.0

# (listing goes on)
SMILES,LANA-H2A inh,Beta cell apopt,B2AR ag,Bfl-1 A1 inh,Calb FLC,T cruzi inh,ALR H2O2 inh,rRNA inh HTS,rRNA inh HTS OD600,rRNA inh HTS RFP
O=C(O)c1ccccc1C(=O)Nc1ccc(Br)c(C(F)(F)F)c1,-0.4,-8.0,-2.1,0.0,3.8,-17.9,17.7,0.4,2.7,-1.0
CC(Oc1cccc(Br)c1)C(=O)NNC(=O)c1ccccn1 (stereo not drawn),3.3,53.9,5.3,-0.3,.,.,-5.0,.,.,.
O=C(c1cn(-c2ccccc2)nc1-c1ccc(Cl)s1)N1CCOCC1,-2.2,-3.3,-13.7,-1.0,10.8,-0.3,-1.1,.,.,.
C/C(CC(=O)Nc1cccc(Cl)c1Cl)=N\NC(=O)c1ccccc1N,-3.1,2.6,0.6,1.2,-2.6,3.9,-9.9,-8.5,-9.0,-0.3
COc1ccc(Cl)cc1NC(=O)NNC(=O)c1ccccn1,-0.9,6.1,0.5,-0.4,2.6,-14.5,6.7,-1.2,-3.5,-4.6
CN(CCc1ccccc1)C(=O)CCc1nnc(Cc2ccc3c(c2)OCO3)o1,2.9,-5.4,-6.8,-1.3,-41.9,-14.9,-2.4,-0.5,0.9,-2.3
Cc1ccc(NC(=O)C2CCCN(C(=O)c3ccc(Cl)cc3)C2)cc1S(=O)(=O)N1CCOCC1 (stereo not drawn),-2.4,4.0,-3.5,-0.7,-5.6,61.8*,-1.5,-20.3,-20.4,-1.9
CCOC(=O)c1ccccc1NC(=O)CN(c1ccccc1C)S(C)(=O)=O,-2.1,0.8,0.5,-0.5,3.0,4.0,-1.6,.,.,.
O=C(c1cccc(N2C(=O)C3C4C=CC(C4)C3C2=O)c1)N1CCN(c2ccccc2)CC1 (stereo not drawn),5.1,-4.2,-1.6,-0.8,-8.3,3.4,33.0,1.7,8.9,2.5
Cc1ccc(NC(=O)CSc2nnc(CNC(=O)c3cccs3)o2)cc1,-0.7,-4.3,-5.5,0.0,-2.2,-10.6,45.8,5.5,6.9,3.1
CC(NC(=O)C12CC3CC(CC(C3)C1)C2)c1ccc2c(c1)OCCO2 (stereo not drawn),-0.7,-6.6,-0.9,0.2,-6.0,11.7,-6.0,.,.,.
Cc1cc(NCCN2CCOCC2)n2nc(C)c(-c3ccc(Cl)cc3)c2n1,-2.1,-6.7,-0.1,-0.4,14.7,9.9,.,.,.,.
O=C(CN(c1ccccc1)S(=O)(=O)c1ccccc1[N+](=O)[O-])N1CCCC1,-4.3,-9.4,-7.3,-1.1,-12.4,0.8,-2.1,-11.2,-2.8,-2.0
CC(C)[C@H](NC(=O)[C@@H]1Cc2ccccc2CN1C(=O)OC(C)(C)C)C(=O)NCC1CCCO1 (stereo partly drawn),1.3,-5.4,3.5,-0.2,-2.6,-15.0,-2.7,4.1,9.7,-0.6
CN1CCN(C2=CC(=O)OC23CCCCC3)CC1,0.0,0.0,-2.5,-0.1,-8.7,-5.7,-19.1,.,.,.
O=C(c1ccccc1)N1CCCN(c2nccc(C(F)(F)F)n2)CC1,1.7,-2.8,-8.5,0.0,-4.8,7.0,-7.4,2.3,0.9,0.6
NC(=O)CC(NC(=O)c1ccc(Br)cc1)c1ccc(NCc2ccc(F)c(F)c2)c([N+](=O)[O-])c1 (stereo not drawn),-4.7,-17.4,6.8,0.6,1.4,4.7,-5.2,-6.4,0.5,-0.9
Cc1c(C(=O)NNC(=O)c2ccncc2)oc2ccccc12,0.0,2.4,-12.3,-1.1,.,.,2.8,5.2,10.6,-0.7
O=C(CCNS(=O)(=O)c1ccccc1)OCC(=O)c1ccc(Br)cc1,5.0,-4.6,8.7,-0.5,-0.2,-14.6,-12.3,-0.3,5.0,-0.9
Cc1cc(NC(=O)CSc2nc3c(C)ccc(C)c3cc2C#N)no1,-2.7,2.3,4.0,0.1,3.3,3.1,-1.7,12.6,18.9,-0.9
CC(C)CC(=O)Nc1nnc(SCC(=O)Nc2ccc3c(c2)OCO3)s1,-1.3,5.8,-2.7,0.2,-7.1,7.7,0.5,.,.,.
Cc1cc(C)cc(N=Cc2ccc([N+](=O)[O-])s2)c1,-0.9,-1.6,8.6,0.3,?,37.1,-2.5,.,.,.
COc1ccc(NC(=O)c2cnn(-c3ccccc3)c2C)c(OC)c1,-5.9,-3.9,-0.3,-0.3,0.8,2.2,-5.4,-1.7,2.8,-0.2
Oc1cccc(Nc2c3ccccc3nc3ccccc23)c1,-1.9,.,6.6,-0.5,13.5,70.5*,99.3*,-17.2,-34.2,8.0
O=C1COc2ccc(C(=O)CSc3ccc(Br)cc3)cc2N1,.,-11.5,0.4,-0.7,.,.,-4.6,0.6,9.3,-1.7
O=C1c2cccnc2C(Nc2ccc(S(=O)(=O)N3CCCCCC3)cc2)N1Cc1ccccc1 (stereo not drawn),-3.6,1.7,-4.6,-0.3,-9.9,15.1,-0.8,.,.,.
CC1(C)CC(NC(=O)C(C)(C)Oc2ccc(Cl)cc2)CC(C)(C)N1,0.9,0.2,8.3,0.1,2.0,0.8,-7.7,5.8,4.5,-0.7
COc1ccc(C(=O)O)cc1S(=O)(=O)Nc1ccccc1-c1ccccc1,-1.7,-5.8,7.0,-0.4,-1.0,-16.7,3.3,10.7,0.3,1.0
N#CC1=C(N)Oc2c(oc(CO)cc2=O)C1c1ccsc1 (stereo not drawn),1.4,-7.6,6.8,-0.4,12.3,-18.3,-11.2,.,.,.
CCCCn1c(SCC(=O)N2CCCC2)nnc1-c1ccccc1,-0.8,-8.6,-3.7,1.4,2.1,-1.7,-20.3,.,.,.
COc1ccccc1N1CCN(C(=O)CSc2nnc3c4ccccc4nc(Cc4ccccc4)n23)CC1,-1.2,3.3,.,-0.6,-4.2,28.9,-0.5,.,.,.

# Screening data from PubChem BioAssay.

# An excerpt, so the mix of outcomes need not match the whole.
